Screening data (PubChem)
HPGD inh: inhibitors of human 15-hydroxyprostaglandin dehydrogenase (HPGD) | purified HPGD, NADH fluorescence kinetic, PGE2 substrate | Potency, µM, for the others: at the highest dose activity change, negative = inhibition, actives largely listed as inhibitors | 150,000 compounds, 4.3% hits | AID 894; active = well fitted inhibition curve with a large enough effect (not every such curve was filed as active); inconclusive = small, poorly fitted or top-dose-only effect, or another doubt; inactive = no such curve, though single readings can be large or run the other way;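 also: top concentration of the series not given in the record; plate controls included wells without enzyme; inactives centre near -10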
Target sequence (P15428 whole entry, looked up): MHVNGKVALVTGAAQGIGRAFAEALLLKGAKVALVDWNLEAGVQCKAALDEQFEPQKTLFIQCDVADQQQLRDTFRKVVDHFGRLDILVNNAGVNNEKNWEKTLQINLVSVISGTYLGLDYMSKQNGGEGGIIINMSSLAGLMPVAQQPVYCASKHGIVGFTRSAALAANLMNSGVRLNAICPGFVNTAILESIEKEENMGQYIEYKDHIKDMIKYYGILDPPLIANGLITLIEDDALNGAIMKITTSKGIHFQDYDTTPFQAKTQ
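NADH formation kinetics: reaction with 30 uM PGE2 and 1 mM NAD+ (final), 20 nM enzyme, Tris-HCl pH 8 with Tween 20, after 15 min compound preincubation at room temperature. Fluorescence change, last versus first of five reads.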
The depositor's hits bear a star; ? = inconclusive; ! = not confirmed by another sample. % is scaled to controls: 0 for no effect and ±100 for the full control effect; potency is read from the fitted curve at half-maximal effect. This is a subset. The share of hits here may be higher or lower than overall.

Structure	HPGD inh
CCOC(=O)c1c(N2C(=O)C3C4C=CC(C4)C3C2=O)sc2c1CCC(C)C2 (configuration not stated)	-3%
COc1ccc(C)cc1NC(=O)C(OC(=O)c1ccc(Cl)c(S(=O)(=O)N(C)c2ccccc2)c1)c1ccccc1 (configuration not stated)	-14%
O=C(c1ccc(-c2cccc(C(F)(F)F)c2)o1)N1CCOCC1	-2%
O=C(c1cccc([N+](=O)[O-])c1)N1CCN(c2ccc(Cl)cc2)CC1	-8%
CC1Cc2ccccc2N1C(=O)C1CCCN(S(=O)(=O)c2cccc3nsnc23)C1 (configuration not stated)	-7%
CC(C)CC(NC=C1C(=O)OC(C)(C)OC1=O)C(=O)O (configuration not stated)	-13%
Cc1ccc(CSCCC(=O)NCCC2=CCCCC2)cc1	?
O=C(Nc1cccc(C(F)(F)F)c1)Nc1ccc(N2CCCC2)c(S(=O)(=O)Nc2ccccc2Cl)c1	-25%
COc1ccc(S(=O)(=O)NCCC(=O)NCc2ccc(F)cc2)cc1	-1%
Cc1ccc2cc(CCNC(=O)Cc3cccs3)c(=O)[nH]c2c1	-29%
CCOC(=O)Cn1c(=O)oc2cc(S(=O)(=O)N(C)Cc3ccco3)ccc21	-20%
CCNc1sc(C(=O)c2cccs2)c(N)c1C#N	-20%
Cn1nnnc1SCC(=O)Nc1nc2c(s1)CCCC2	-3%
COc1ccc(/C=C/C(=O)OCCC(C)C)cc1	-19%
COC(=O)c1ccccc1NC(=O)/C=C/c1cc(OC)c(OC)c(OC)c1	?
CCCCc1nc2c(c3c1C[C@H](C)OC3)CN(S(=O)(=O)c1ccccc1C(=O)OC)CC2	-8%
c1ccc(-c2cn3c(n2)-c2ccccc2C3)cc1	?
COC(=O)c1ccc(CSc2nnc(CNC(=O)COc3ccc(Cl)cc3)o2)o1	-14%
CCCOC(=O)C(C)n1c(-c2ccccc2)nc2ccccc2c1=O (configuration not stated)	-5%
CCOC(=O)N1CCC(N2Cc3cccc(C(=O)Nc4ccc(F)cc4)c3C2=O)CC1	-14%
O=C(NCc1cccs1)c1cc(-c2cccs2)on1	-3%
CCOC(=O)Cc1csc(N/N=C\c2cccc(Br)c2)n1	-8%
O=S(=O)(/C=C/c1ccccc1)N1CCN(c2cccc(Cl)c2)CC1	-11%
COc1ccc(C2CC(c3ccccc3)=NN2S(=O)(=O)c2ccccc2)c(OC)c1 (configuration not stated)	-1%
CCCC1S/C(=N/N=C/c2cccs2)NC1=O (configuration not stated)	-20%

Next records
Structure	HPGD inh
Nc1nc(Nc2ccc(Cl)cc2)n[nH]1	-12%
C=CCOc1cc(C)nc(-c2ccccc2O)n1	-4%
CN1CCN(c2ccc(Cl)cc2NC(=O)c2cccc(S(=O)(=O)N(C)C)c2)CC1	-28%
CCc1ccc(C(=O)CC2(O)C(=O)N(CN3CCOCC3)c3ccccc32)cc1 (configuration not stated)	-5%
NC(=O)SCC(=O)Nc1ccc2ncccc2c1	-11%
Cc1ccc(C(=O)CC(C(=O)O)n2cccn2)cc1 (configuration not stated)	-3%
Cc1cccc(OCC(=O)O/N=C(\N)c2ccccn2)c1C	-7%
Cc1ccc(S(=O)(=O)N(C)/C(=N/S(=O)(=O)c2ccccc2)c2ccccc2)cc1	-13%
O=C1Oc2ccccc2C2(O)C3CCCCCC3C12 (configuration not stated)	-2%
c1ccc(N2CCN(c3nc4ccccc4n4cnnc34)CC2)cc1	?
Cc1cc([N+](=O)[O-])nn1CC(=O)NCc1ccco1	-10%
O=c1oc2cc(O)ccc2cc1-c1nc2c(s1)CCc1ccccc1-2	?
COc1ccc(C(=O)Nc2cc(C)nc3ccccc23)cc1OC	0%
CCOc1ccccc1N1CCN(C(=O)c2cc[n+]([O-])cc2)CC1	-13%
Cc1ccc(CNC(=O)c2sccc2-n2cccc2)cc1	13µM*
CN(C)CC(O)COc1ccc(C(C)(C)c2ccc(OCC(O)CN(C)C)cc2)cc1 (configuration not stated)	-13%
Cn1c(=O)[nH]c2ccc([N+](=O)[O-])nc21	-24%
O=C(O)C1CCN(C(=O)COc2ccc3c4c(c(=O)oc3c2)CCC4)CC1	?
CC1CN(C(=O)c2ccc3c(c2)OCO3)CC(C)O1 (configuration not stated)	25µM*
CCOC(=O)CSc1nc2ccccc2c(=O)n1Cc1ccco1	-5%
CCCNC(=O)NC(=O)COC(=O)c1oc2ccc(OCC)cc2c1C	-19%
c1ccc(CN2CCC3(CC2)SSC2(CCN(Cc4ccccc4)CC2)SS3)cc1	-4%
O=C(c1ccc(N2C(=O)C3CCCCC3C2=O)cc1)N1CCCCC1 (configuration not stated)	1µM*
N=C(N)c1ccc(OCCCCCOc2ccc(C(=N)N)cc2)cc1 (tested in a mixture with another compound)	-16%
COc1ccc(OCC(=O)NNC(=O)c2ccccn2)cc1	-2%

Pulled by structure from the entries so far:
Structure	HPGD inh
CN(C)CC(O)COc1ccc(C(C)(C)c2ccc(OCC(O)CN(C)C)cc2)cc1 (configuration not stated)	-13%
O=C(O)C1CCN(C(=O)COc2ccc3c4c(c(=O)oc3c2)CCC4)CC1	?

Returning to the listing; the 3 compounds before the break are reprinted first.
Structure	HPGD inh
O=C(c1ccc(N2C(=O)C3CCCCC3C2=O)cc1)N1CCCCC1 (configuration not stated)	1µM*
N=C(N)c1ccc(OCCCCCOc2ccc(C(=N)N)cc2)cc1 (tested in a mixture with another compound)	-16%
COc1ccc(OCC(=O)NNC(=O)c2ccccn2)cc1	-2%
CSc1nnc(-c2cnccn2)n1CCCN1CCCC1=O	0%
Cc1nnc(-c2cnn(C)c2N)n1Cc1cccc(Cl)c1	-3%
COc1cc(OC)cc(C(=O)NCC(=O)OCc2csc(-c3ccccc3)n2)c1	-9%
COc1cc(S(=O)(=O)Nc2cccc(C)c2)ccc1NC(=O)c1cccnc1	-8%
Cc1c(Cl)cccc1NC(=S)N(CCCN1CCOCC1)Cc1cccs1	-4%
CCCCOc1ccc(N(CC(=O)NC2CCCC2)C(=O)CCC(=O)Nc2ccccn2)cc1	-8%
c1ccc(OCCOc2cccc3cccnc23)cc1	-5%
CC(=O)c1ccc(N2CCN(c3ccc(C(F)(F)F)cn3)CC2)cc1	-5%
CCC(=O)Nc1cccc(C(=O)OCC(=O)c2ccccc2Cl)c1	-5%
O=C(CN1CC(=O)Oc2ccccc21)OCC(=O)c1ccccc1	-4%
O=C(NCCc1ccccc1)c1ccc(-n2cnnn2)cc1	-1%
O=C(N/N=C\c1cccc(OC(=O)c2ccco2)c1)c1ccc2c(c1)OCO2	-10%
Cc1cc(/C=C2/SC(=O)N(CC(=O)OC(C)C)C2=O)c(C)n1C	5%
O=C(CSc1nnnn1-c1ccccc1)Nc1ccc(Cl)cc1	-9%
O=C(CN(Cc1ccc(F)cc1)S(=O)(=O)c1ccccc1)N1CCCCC1	-4%
Cc1ccc(CNC(=O)c2ccccc2NC(=O)CSc2nnnn2C)cc1	5%
CCOC(=O)N1CCN(S(=O)(=O)c2c(C)cc(C)cc2C)CC1	-10%
O=C(NCCc1ccccc1)C1CCCN(S(=O)(=O)c2cccc3nsnc23)C1 (configuration not stated)	-10%
CSCC[C@H](NC(=O)C1CCN(S(=O)(=O)c2ccc(C)cc2)CC1)C(=O)NCC1CCCO1 (some centres not stated)	-11%
CCCCN(CC)CCNC(=O)c1cc2c(C)nc3ccccc3c2o1	-9%
COc1ccc(Cl)cc1S(=O)(=O)N1CCN(C(=O)c2cc(OC)c(OC)c(OC)c2)CC1	-14%
O=C(c1ccccc1)c1ccc(OCCCCN2CCCCC2)cc1	1%
COCCN(CC(=O)NCc1ccc2c(c1)OCO2)C(=O)CCC(=O)Nc1nccs1	-10%
COc1ccc(OC)c(C2C(C(C)=O)=C(O)C(=O)N2CCN2CCOCC2)c1 (configuration not stated)	-14%
COc1ccc(C(=O)C[n+]2ccc(C)cc2)cc1	4%

Next results.
Structure	HPGD inh
CCc1nnc(NC(=O)CCC(=O)Nc2ccccc2)s1	2%
CCn1cc(C(=O)Nc2sc(C)c(C)c2C(=O)OC)cn1	?
COc1nc(NCc2ccco2)nc(NC2CCCCC2)n1	-2%
Cc1cc(OCC(=O)Nc2ccc(N3CCN(C(=O)c4ccco4)CC3)cc2)cc(C)c1Cl	-22%
O=C(NCc1ccc2c(c1)OCO2)c1cc2n(n1)C(C(F)(F)F)CC(c1ccc3c(c1)OCO3)N2 (configuration not stated)	-2%
COc1cc2nc(=S)n3[nH]c(CCn4c(C)nc5ccccc54)nc3c2cc1OC	?
O=C(/C=C/c1cc([N+](=O)[O-])ccc1OC(F)F)NCc1ccc(Cl)cc1	-4%
Oc1ccc(CNCc2ccccc2)c2cccnc12	-3%
CC(=O)N1CCN(Cc2nc3cc(NC(=O)C4CCCCC4)ccc3n2C)CC1	-5%
O=C(CSCc1ccc(Cl)cc1)Nc1ccc2c(c1)OCCO2	-19%
NNC(=O)CSc1c(-c2cccs2)[nH]c2ccccc12	-12%
CC(C)(C)NC(=O)C1CCN(S(=O)(=O)c2ccc(Br)cc2)CC1	1%
Cc1c(-c2nc(N)nc(Nc3ccccc3)n2)oc2ccccc12	?
Cn1c(=O)c2c(ncn2CC(=O)OCC(=O)NCc2ccc(Cl)cc2)n(C)c1=O	-23%
CCCS(=O)(=O)c1snnc1C	-6%
C=CCC(C)(NCc1ccccc1)c1ccccc1 (configuration not stated)	-4%
CCCCCCCC1=Cc2ccccc2C(C(C(=O)OC)C(=O)OC)N1C(=O)OC (configuration not stated)	-10%
Nc1nc(NCc2c(F)cccc2Cl)nn1-c1ccccc1	-5%
COc1cccc(-n2c(SCC(=O)NC3CCCC3)nnc2-c2ccco2)c1	?
O=c1c(O)c(-c2ccc(O)cc2)oc2cc(O)cc(O)c12	28µM*!
C=CCNc1nc2c(c(=O)n(C)c(=O)n2C)n1CCCCCC	-15%
Cn1c(N/N=C/c2cc3ccccc3nc2Cl)nc2ccccc21	-4%
CCOC(=O)CON1C(=O)C(C)(C)N(OCC(=O)OCC)C(=O)C1(C)C	-8%
O=c1oc2cc(Br)ccc2n1CSC1=NCCS1	22µM*
Cn1cc(C(=O)Nc2cccc(F)c2)cn1	-2%

Next section.
Structure	HPGD inh
CCc1cc(C(N)=O)c(NC(=O)c2ccc(OC)cc2)s1	-15%
CCC(C)(C#CCN1CCCCC1)OCCC#N (configuration not stated)	-1%
COC(=O)c1cn(C(=O)c2ccco2)c2ccccc12	-8%
Cc1ccc(N2C(=O)CCSC23C(=O)Nc2ccccc23)cc1 (configuration not stated)	-14%
COc1ccc(O)c(/C=N/NC(=O)c2ccc(CSc3nc(C)cc(C)n3)cc2)c1	-9%
CCn1cc(C(=O)NCC2CCCO2)c(=O)c2cc(S(=O)(=O)N3CCC(C)CC3)ccc21 (configuration not stated)	-6%
CC(=O)N(/N=C1\Sc2ccccc2C1=O)c1ccc(C)cc1C	-21%
CCc1ccc(OCc2nc(-c3ccccn3)no2)c(Br)c1	28µM*
O=C(O)CCC(=O)Nc1ccc2ccccc2c1	-11%
O=C(CSc1ccccn1)c1ccc(F)cc1	25µM*
CC1=CC(C)(C)N(C(=O)c2ccccc2)c2ccccc21	-10%
CN(C)Cc1nc2ccccc2c(=O)n1Cc1nc(-c2cc3ccccc3o2)cs1	-11%
Cn1c(=O)c2c(ncn2CC(=O)Nc2ccc(N3CCOCC3)cc2)n(C)c1=O	5%
O=C(CCS(=O)(=O)c1ccccc1)Nc1nc(-c2cccs2)cs1	3%
CN1C[C@@H]2C(c3ccccc3)C3(c4ccccc4)CC2(C3)[C@H]1c1ccccc1 (some centres not stated)	-8%
Cc1cccc(S(=O)(=O)Nc2cccc3c2C(=O)c2ccccc2-3)c1	-10%
COc1ccc(CCNC[C@@H](O)c2ccc(O)cc2)cc1OC	-16%
Cc1c(N2C(=O)/C(=C3/C(=O)N(C)c4ccccc43)SC2=S)c(=O)n(-c2ccccc2)n1C	7%
COc1ccc(C(=O)Nc2ccccc2C(=O)N/N=C/c2ccccc2OC)cc1	?
CC(C)(C)NCc1ccccc1OCc1cccs1	0%
CCc1nc(SCC(=O)NCCc2ccccc2)c2oc3ccccc3c2n1	-14%
c1ccc(CCn2nnnc2C(c2cccnc2)N2CCN(c3ccccc3)CC2)cc1 (configuration not stated)	-10%
c1ccc(SCCOCCN2CCc3ccccc3C2)cc1	3%
O=c1cc(C(F)(F)F)[nH]c(=O)n1C1CCCCC1	-21%
CCN(C(=O)COC(=O)c1cc(-c2ccc3cc(OC)ccc3c2)nc2ccccc12)C1CCS(=O)(=O)C1 (configuration not stated)	?
COC(=O)C1=C(C(=O)OC)[C@@H]2N(Cc3ccccc3)c3ccccc3[C@@]23C[C@@H](C(=O)OC)N(C(=O)c2ccc(Br)cc2)C3=N1	0%
Cc1[nH]nc2c1C(c1ccsc1C)C(C#N)=C(N)O2 (configuration not stated)	-9%

A run of entries taken from the entries so far, for reference:
Structure	HPGD inh
Cc1c(N2C(=O)/C(=C3/C(=O)N(C)c4ccccc43)SC2=S)c(=O)n(-c2ccccc2)n1C	7%
COc1ccc(C(=O)Nc2ccccc2C(=O)N/N=C/c2ccccc2OC)cc1	?
CC(C)(C)NCc1ccccc1OCc1cccs1	0%
CCc1nc(SCC(=O)NCCc2ccccc2)c2oc3ccccc3c2n1	-14%
